Rango complex inh: prevents formation of the Rango-importin beta complex; Rango CFP/YFP FRET sensor + importin beta, 45 min; 0.031% of 340,000 active; Potency, µM (titrated, usually from 92.2 µM), for inactives: at the top dose inhibition of complex formation; Q14974; active = rising FRET ratio curve, often small or poorly fitted; inconclusive = mostly compound fluorescence or quenching in the first reads; inactive = flat curves in all reads;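 also: potency is read from the fitted curve at half-maximal effect; 0% = DMSO wells and 100% = buffer wells lacking importin beta; nearly all actives have a fitted effect of over 15% in size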
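FRET biosensor Rango (snurportin 1 IBB between N-terminal EYFP and C-terminal Cerulean), 50 nM in PBS/1 mM DTT/0.02% Tween-20/0.1% BSA, preincubated 5 min RT with compound; 0.125 microM importin beta added, 45 min RT, CFP/YFP FRET ratio read.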
GLA inh pH 4.5: alpha-galactosidase A (human) inhibition, pH 4.5; activity change, negative = inhibition, % at 105 µM; purified enzyme, 4-MU-alpha-Gal fluorescence, pH 4.5; P06280; 230,000 tested, under 10 active; AID 1467; inconclusive = small, poorly fitted or top-dose-only inhibition, or a rising curve; inactive = flat fitted curve, though single readings scatter; no compound was filed as active;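 also: 0% = full activity with enzyme and -100% = basal without enzyme; dose as in the result columns while the protocol names 77 µM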
Target sequence (P06280 whole entry, looked up): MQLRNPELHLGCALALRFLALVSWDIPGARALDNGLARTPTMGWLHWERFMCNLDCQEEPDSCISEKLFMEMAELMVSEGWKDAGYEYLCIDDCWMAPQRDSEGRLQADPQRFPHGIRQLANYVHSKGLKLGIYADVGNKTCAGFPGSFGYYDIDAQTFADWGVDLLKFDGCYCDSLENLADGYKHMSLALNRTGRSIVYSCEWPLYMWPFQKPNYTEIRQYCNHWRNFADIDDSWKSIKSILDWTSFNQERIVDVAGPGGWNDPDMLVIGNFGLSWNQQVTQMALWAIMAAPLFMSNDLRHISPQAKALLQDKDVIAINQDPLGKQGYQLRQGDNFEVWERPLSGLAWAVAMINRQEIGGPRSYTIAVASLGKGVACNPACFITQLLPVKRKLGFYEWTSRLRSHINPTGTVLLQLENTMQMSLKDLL
miR-21 FLuc: raises the signal of a miR-21 reporter | HeLa miR-21 FLuc reporter, luciferase, 48 h | 340,000 tested, under 10 active | Potency, µM (titrated, usually from 38.3 µM), for inactives: at the top dose reporter change, positive = more light | AID 2288; active = well fitted rising curve with a large enough effect; inconclusive = small, poorly fitted or top-dose-only effect; inactive = no such curve, though single readings can be large or run the other way;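 also: % of control where 0% means no effect; miR-21 action dims this reporter so a rising signal means less miR-21 action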
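Compounds were titrated across several concentrations (up to approximately 40 uM) and incubated 48 hours with HeLa miR-21-FLuc reporter cells (miR-21 target sequence downstream of FLuc, endogenous miR-21). Readout was firefly luciferase luminescence after lytic detection reagent.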
Rango release inh: inhibition of RanGTP-driven Rango-importin beta dissociation; O95149+P62826; 0.071% of 340,000 active; Potency, µM (highest dose often 46.1 µM), for the others: at the highest dose activity change, negative = inhibition; AID 540253; Biochemical FRET Rango-importin beta, RanGTP-induced dissociation; active means falling FRET ratio curve, often poorly fitted, with flat reads before Ran was added; inconclusive means other falling curves, or compound fluorescence or quenching; inactive means flat or rising ratio curve;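 also: potency is read from the fitted curve at half-maximal effect; % of control where 0% means no effect; nearly all actives have a fitted effect of over 45% in size; -100% = wells without RanGTP and RCC1; the record marks most hits as doubtful in a second field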
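Quantitative HTS using a FRET biosensor: 0.1 uM Rango, 0.25 uM importin beta, 0.6 uM Ran, 2 mM GTP, 0.2 uM RCC1 final, PBS with DTT, Tween-20 and BSA. Post-read taken 45 min after Ran addition.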
* = called active by the depositor; ? = inconclusive; nt = not tested or not shown.

SMILES | Rango complex inh | GLA inh pH 4.5 | miR-21 FLuc | Rango release inh
CCc1ccc(-c2nc(CN3CCC(C(=O)NCc4ccco4)CC3)c(C)o2)cc1 | -3.3% | -1 | -7% | 16%
COc1ccccc1COc1ccc2c(C)c(CC(=O)O)c(=O)oc2c1C | -4.3% | nt | -6% | -1%
CC1(C)C(C#N)=C(N)Oc2c1c(=O)oc1ccccc21 | -3.7% | 8 | -8% | 6%
CCn1c2ccccc2c2cc(NC(=O)CSc3nnc(-c4ccccc4OC)n3N)ccc21 | 0.3% | -1 | 1% | 1%
COc1ccc(CN2CCC(C(=O)Nc3ccc(Oc4ccccc4)nc3)CC2)cc1F | -2.3% | nt | 21% | -2%
CCCCC(=O)OCCNC(=O)c1cc2ccccc2oc1=O | 0.4% | 5 | -11% | -4%
COn1c(=O)c(-c2ccc(C)cc2)[n+]([O-])c2ccccc21 | -2.7% | nt | -7% | 9%
COc1ccccc1NC(=O)CCN1CC(C)OC(C)C1 (stereo not given) | -2.3% | -3 | -2% | -15%
COc1ccccc1NC(=O)C1=C(C)NC(SCC(=O)Nc2ccc(C(=O)O)cc2)=C(C#N)C1c1cccs1 (stereo not given) | 2.1% | 4 | -6% | 2%
O=C(CCC1CCCCC1)Nc1ncn[nH]1 | 0.0% | 5 | -3% | 9%
CCOc1cc(NC(=S)NCCCOC)c(OCC)cc1NC(=O)c1cccs1 | -0.7% | 5 | -6% | 1%
CCC(C)(C)NC(=O)c1ccccc1Oc1ccccc1 | -1.1% | -5 | 0% | ?
CCSc1ccccc1C(=O)N1CCN(c2ccc([N+](=O)[O-])cc2)CC1 | 0.8% | 0 | 6% | 2%
CC1CCC(NC(=O)CC(NC(N)=O)c2ccccc2Cl)CC1 (stereo not given) | 2.8% | nt | -23% | -6%
Cc1cc(NC(=O)CCC(=O)N(CC(=O)NC2CCCC2)c2ccc(Cl)c(Cl)c2)no1 | 3.0% | nt | -4% | -4%
COc1ccc(CC(=O)N2CCN(S(=O)(=O)c3ccc(Cl)s3)CC2)cc1 | -1.4% | nt | nt | -5%
O=c1c2ccccc2nnn1Cc1ccc(Br)cc1 | 0.2% | 2 | -33% | 3%
CCOC(=O)CN1CC23C=CC(O2)C(C(=O)NC2CCCCC2)C3C1=O (stereo not given) | 1.3% | 2 | -1% | -1%
CC(C)Cn1c(SCC(=O)N2CCN(S(=O)(=O)c3ccccc3)CC2)nc2ccccc21 | -1.2% | -19 | 29% | -5%
O=C(Nc1cccnc1)c1cc(-c2cccc(Br)c2)nc2ccccc12 | -2.7% | nt | 19% | -14%
COC(=O)c1cc2ccsc2n1CC(=O)N(C)c1ccccc1 | 0.2% | 4 | 6% | 11%
N#C/C(=C\c1ccc[nH]1)C(=O)N1CCCCC1 | -0.2% | -6 | -17% | 1%
COc1ccc(Cl)cc1C(=O)Nc1nc2ccc(S(C)(=O)=O)cc2s1 | nt | -13 | -35% | nt
Cc1cccc(C)c1OCc1cc(C(=O)N2CCCC2c2nonc2C)no1 (stereo not given) | 0.1% | nt | -16% | 1%
Cn1c(SCC(=O)NC2CCS(=O)(=O)C2)nnc1-c1ccco1 (stereo not given) | -1.5% | nt | nt | -7%
O=C1CSC(=S)N1/N=C/c1ccc(O)c(O)c1O | -2.9% | 1 | 1% | -11%
Cc1cc(C(=O)Nc2ccc3c(c2)CCC3)ccc1[N+](=O)[O-] | 4.6% | nt | nt | -3%
O=C(COc1ccc(/C=N/NS(=O)(=O)c2ccccc2)cc1)N1CCOCC1 | -0.6% | 11 | 0% | 13%
CC(Sc1ncc(C(F)(F)F)cc1Cl)C(=O)NC(N)=O (stereo not given) | ? | -5 | -12% | 0%
COc1cccc(NC(=O)CN(C)C(=O)c2ccc3c(c2)CC(c2ccccc2)OC3=O)c1 (stereo not given) | -1.3% | nt | nt | -9%

Single records, as listed above. Values in the order: Rango complex inh	GLA inh pH 4.5	miR-21 FLuc	Rango release inh
`O=C(COc1ccc(/C=N/NS(=O)(=O)c2ccccc2)cc1)N1CCOCC1` as listed: -0.6%	11	0%	13%
`COc1cccc(NC(=O)CN(C)C(=O)c2ccc3c(c2)CC(c2ccccc2)OC3=O)c1` (stereo not given) as listed: -1.3%	nt	nt	-9%
`Cn1c(SCC(=O)NC2CCS(=O)(=O)C2)nnc1-c1ccco1` (stereo not given) as listed: -1.5%	nt	nt	-7%
`COC(=O)c1cc2ccsc2n1CC(=O)N(C)c1ccccc1` as listed: 0.2%	4	6%	11%
`Cc1cccc(C)c1OCc1cc(C(=O)N2CCCC2c2nonc2C)no1` (stereo not given) as listed: 0.1%	nt	-16%	1%

Going on with the list:
SMILES | Rango complex inh | GLA inh pH 4.5 | miR-21 FLuc | Rango release inh
Cc1ccc(C(=O)NCC(=O)N2CCCCCCC2)cc1 | -1.1% | nt | nt | -1%
COc1ccccc1C(OC(=O)c1cccs1)C(=O)NCc1ccco1 (stereo not given) | -0.7% | -6 | -5% | -8%
CCn1c(C(=O)N2CCC(C(=O)N3CCN(c4ccccn4)CC3)CC2)cc2sccc21 | -1.4% | -15 | 20% | -1%
CC1CCCN(C(=O)c2cc3c(=O)n4ccccc4nc3s2)C1 (stereo not given) | ? | nt | -86% | -13%
CCN(CC(=O)Nc1ccccc1OC)C(=O)CCc1ccccc1 | -0.1% | nt | -1% | 23%
O=S1(=O)c2ccc(Br)cc2OC(COCc2ccccc2)CN1Cc1ccccc1 (stereo not given) | 2.5% | nt | nt | 9%
COc1cccc(/C=C/c2ccc3ccccc3n2)c1OC(C)=O | ? | -5 | 11% | -1%
CCN1CCCC1CNC(=O)c1cc2c(-c3cccc(OC)c3)nn(C)c2s1 (stereo not given) | 2.2% | -1 | 0% | 1%
Cc1nnc(SCC(=O)N(C2CCCCC2)C2CCS(=O)(=O)C2)n1N (stereo not given) | 0.3% | nt | nt | 21%
COc1ccccc1-c1nnc(-c2ccc(C)cc2)o1 | 0.0% | nt | nt | 11%

Structures listed so far that contain a COOH group, in the order listed:
SMILES | Rango complex inh | GLA inh pH 4.5 | miR-21 FLuc | Rango release inh
COc1ccccc1COc1ccc2c(C)c(CC(=O)O)c(=O)oc2c1C | -4.3% | nt | -6% | -1%
COc1ccccc1NC(=O)C1=C(C)NC(SCC(=O)Nc2ccc(C(=O)O)cc2)=C(C#N)C1c1cccs1 (stereo not given) | 2.1% | 4 | -6% | 2%

New compounds follow
SMILES | Rango complex inh | GLA inh pH 4.5 | miR-21 FLuc | Rango release inh
CC1(C)Cc2ccccc2-c2nnnn21 | 4.4% | 0 | -4% | -1%
O=C(NCc1ccccc1)C1=C[C@@H](c2csc3ccccc23)C[C@@H](OCc2ccc(CO)cc2)O1 | -2.3% | -9 | ? | -3%
CCOC(=O)c1c(-c2ccccc2)nc2ccccn12 | -1.3% | -6 | -9% | -2%
Cc1ccc(N(Cc2cc(=O)[nH]c3ccccc23)C(=O)C(C)C)cc1 | 1.3% | -1 | -4% | 31%
N#C/C(=C(/O)c1cccs1)c1nnc2n1CCCCC2 | 5.4% | 3 | 4% | -2%
CC1(C)CC(=O)C(C2C3=C(CC(C)(C)CC3=O)Oc3c(Br)cc(Br)cc32)=C(O)C1 (stereo not given) | -0.8% | nt | -4% | -20%
O=C(C1=C[C@H](c2ccc3c(c2)OCO3)C[C@H](OCCCCO)O1)N1CCN(Cc2ccc3c(c2)OCO3)CC1 | -1.5% | -4 | 12% | -3%
CCCCN(Cc1nc2ccccc2c(=O)[nH]1)C(=O)c1nn(C)c(=O)c2ccccc12 | ? | nt | nt | -19%
Fc1ccccc1NC(=S)NN(Cc1ccccc1)c1ccccc1 | -1.9% | -23 | 1% | -2%
O=C(Nc1cccc(CCc2ccccn2)c1)c1ccc(Cl)cc1 | nt | -13 | -5% | nt

Three of the compounds above, as tab-separated lines.
canonical_smiles	Rango complex inh	GLA inh pH 4.5	miR-21 FLuc	Rango release inh
CCCCN(Cc1nc2ccccc2c(=O)[nH]1)C(=O)c1nn(C)c(=O)c2ccccc12	?	nt	nt	-19%
Fc1ccccc1NC(=S)NN(Cc1ccccc1)c1ccccc1	-1.9%	-23	1%	-2%
Cc1ccc(N(Cc2cc(=O)[nH]c3ccccc23)C(=O)C(C)C)cc1	1.3%	-1	-4%	31%

(listing goes on)
SMILES | Rango complex inh | GLA inh pH 4.5 | miR-21 FLuc | Rango release inh
O=C(COC(=O)c1n[nH]c2ccccc12)c1cccc(Br)c1 | 2.3% | nt | -6% | 1%
Cc1oc2ccccc2c1-c1cn2c(n1)SCC2 | ? | 11 | -15% | -29%
O=C(Cn1nnc(-c2ccccc2Cl)n1)N/N=C/c1ccc2c(c1)OCO2 | -4.1% | 4 | -12% | -3%
O=S(=O)(c1cccnc1)N1CCn2cccc2C1c1ccccc1F (stereo not given) | -0.6% | nt | nt | 6%
COc1cc2c(cc1OC)CN(C(=O)c1ccncc1)CC2 | ? | nt | -4% | 14%
CCOC(=O)C1CCCN(C(=O)c2cc(S(=O)(=O)N3CCCCC3)ccc2Cl)C1 (stereo not given) | 0.7% | nt | nt | 19%
CCc1ccc(OCCOCC(O)CN(CCO)CCO)cc1 (stereo not given) | -1.0% | 12 | 0% | 21%
COc1ccc(-c2cn(-c3ccc(C)c(C)c3)c(=S)[nH]2)cc1OC | 1.0% | nt | -3% | -21%
CCOc1ccc(CN(C)CC(=O)Nc2cc(C)c(C)cc2[N+](=O)[O-])cc1 | -1.3% | -6 | -7% | -8%
CCOC(=O)c1c(-c2ccncc2)csc1N | 1.8% | 0 | -3% | 2%
Cc1cccc(C2Nc3ccccc3C(=O)N2c2ccc(F)cc2)n1 (stereo not given) | -0.3% | 3 | -26% | -2%
OC12CCCCC1C(c1ccc3c(c1)OCO3)N(Cc1ccc(F)cc1)CC2 (stereo not given) | -2.1% | -5 | 1% | 2%
Cc1ccccc1Sc1ncccc1[N+](=O)[O-] | 4.7% | nt | nt | 10%
O=C(Nc1ccc(F)c(Cl)c1)c1ccc2c(c1)OCO2 | -1.1% | nt | -43% | -18%
CN1CC2(C)CN(C(c3ccccc3)c3ccccc3)CC(C)(C1)C2O (stereo not given) | -0.7% | 2 | 0% | -3%
O=C(NCc1ccc(F)cc1)C1CCC(CNS(=O)(=O)c2ccccc2)CC1 (stereo not given) | -0.3% | nt | 5% | 0%
CS(=O)(=O)N1CCN(c2ccc([N+](=O)[O-])c(NCc3cccnc3)c2)CC1 | 0.7% | -1 | -7% | -3%
CC1=C(C(=O)N2CCCC(N3CCN(c4cccc(Cl)c4)CC3)C2)OCCO1 (stereo not given) | 5.0% | nt | -2% | -1%
COc1cccc(-n2nc3c(=S)[nH]nc(C)c3c2C)c1 | 1.2% | -6 | -4% | -13%
O=C(Nc1ccc(Cn2ccnc2)cc1)c1cccc(C(F)(F)F)c1 | -1.4% | nt | 4% | -12%
Fc1ccccc1CNc1cc(Cl)cc(Cl)c1 | 1.9% | 2 | -9% | 7%
Cc1nonc1CN(C)C(=O)c1ccc(OC2CCN(Cc3ccccn3)CC2)cc1 | -1.0% | -27 | 6% | 0%
O=C(/C=C/c1ccccc1)NCCS(=O)(=O)N1CCN(c2ccccc2)CC1 | -0.3% | nt | nt | 0%
CC(C)N(C1=CC(=O)OC12CCCCC2)C(C)C | -0.8% | -7 | -1% | 23%
CN(CCOc1ccc(Cl)cc1)C(=O)c1ccc2c(=O)n3c(nc2c1)CCC3 | 0.3% | nt | nt | -6%
CC(=O)/C(=N/Nc1ccccc1C)N1CCOCC1 | 0.5% | -27 | -12% | -6%
CCN(CC)C(=O)CSc1ncnc2sccc12 | -0.1% | 3 | -22% | -7%
CC(=O)/C(=C(/O)c1ccccc1)c1nc2ccccc2[nH]1 | -3.2% | ? | -11% | 5%
CC(=O)Nc1ccc(S(=O)(=O)NCC2CC3CCC2C3)cc1 (stereo not given) | 0.2% | nt | nt | -4%
COc1cccc(C(=O)N2CCC(n3nccc3NC(=O)C(OC)c3ccccc3)CC2)c1 (stereo not given) | 0.2% | nt | -1% | 0%
O=[N+]([O-])c1ccc(O)c(C=Nc2ccc3oc(Cc4ccc(Cl)cc4)nc3c2)c1 | nt | -13 | 1% | nt
CCOc1ccc2nc(NC(=O)C(CC)Sc3nc(C)cc(=O)[nH]3)sc2c1 (stereo not given) | 1.0% | -6 | -31% | 9%

Some of the compounds tested (hit frequency here may not be typical).
